2A Renilla: FMDV 2A StopGo reporter, Renilla signal; 120,000 compounds, 0.32% hits; AID 1745857; HEK cells with a luciferase reporter of 2A StopGo recoding; Potency, µM (series often up to 57.5 µM), inactives show at the top dose signal change, negative = less light; active means well fitted falling curve with a large enough effect; inconclusive means small, poorly fitted or top-dose-only effect; inactive means no such curve, though single readings can be large or run the other way; note: nearly all actives have a fitted effect of over 55% in size; overnight with compound
StopGo FLuc: lowers the firefly signal of an FMDV 2A StopGo reporter | HEK cells with a luciferase reporter of 2A StopGo recoding | Potency, µM (highest dose often 57.5 µM), for the others: at the highest dose signal change, negative = less light | 120,000 compounds, 0.23% hits; active = well fitted falling curve with a large enough effect; inconclusive = small, poorly fitted or top-dose-only effect; inactive = no such curve, though single readings can be large or run the other way; note: nearly all actives have a fitted effect of over 60% in size; overnight with compound
Active calls of the source: *; u = inconclusive; [ ] = remark or other dose. % is set by controls: 0 for no effect and ±100 for the full control effect; potency is the fitted concentration of half-maximal effect.

nr	SMILES	StopGo FLuc	2A Renilla
1	Cc1cc(C)cc(N2C(=O)N(Cc3cc(=O)n4ccccc4n3)c3ccccc3S2(=O)=O)c1	22%	67%[activator]
2	COCCOc1ccc(C(=O)/C=C/c2cccc(O)c2)cc1OC	99%[activator]	27%
3	O=S(=O)(c1ccc(Br)cc1)c1nnn2c1nc(N1CCOCC1)c1sccc12	-29%	-6%
4	O=C(/C=C/c1cn(CC(O)CN2CCCCCC2)c2ccccc12)c1ccc(Br)cc1 (stereo not given)	-16%	-24%
5	COc1cc(C(C)=O)ccc1OCc1cccc(C#N)c1	175%[activator]	32%
6	Cc1ccc(-c2cc(-c3ccc(C)c(C)c3)n(-c3ccc(C)c(C)c3)n2)cc1C	0%	16%
7	COc1ccc(S(=O)(=O)Oc2ccc3c(c2)O/C(=C\C=C\c2ccccc2)C3=O)cc1	1%	-7%
8	Cc1cccc(N(CC(=O)NCc2ccccc2)S(C)(=O)=O)c1C	-8%	6%
9	COc1ccc(/C=C/c2nc3ccccc3c(=O)n2-c2cccc(C(F)(F)F)c2)cc1	17%	21%
10	O=C(Nc1ccc2c(c1)nc1n2CCOC1)C1CCCCC1	16%	19%
11	CC(C)C(NC(=O)Cn1nnn(-c2ccccc2)c1=O)c1ccccc1 (stereo not given)	0%	7%
12	CN=C1S/C(=C/C(=O)OC)C(=O)N1C	0%	8%
13	CC(C)c1ccc2oc(-c3ccc(Cl)c(NC(=O)c4cccnc4)c3)nc2c1	8%	26%
14	CCOC(=O)c1cc(-c2ccc(S(=O)(=O)N3CCN(c4ccc(Cl)cc4)CC3)s2)on1	-11%	-14%
15	CCCCN(C)CCNC(=O)Cn1ncc2c([nH]c3ccccc32)c1=O	6%	-4%
16	CCn1cc(C(=O)N2CCC(CNC(C)=O)CC2)c2ccccc21	0%	4%
17	Nc1c(C(=O)Nc2ccc(Br)cc2)sc2nc(-c3ccncc3)ccc12	45%[activator]	0%
18	COc1ccccc1NC(=O)CSC1=Nc2ccccc2C2=NC(CC(=O)NCc3ccccc3)C(=O)N12 (stereo not given)	-24%	-10%
19	Cc1nn(-c2ccccc2)c(NC(=O)c2ccco2)c(-c2ccccc2)c1=O	-5%	-20%
20	CC(C)(C)C(=O)Cn1c(=O)n(-c2ccccc2)c(=O)c2c3c(sc21)CCC3	-1%	-9%

One compound at a time (already shown). Values in the order: StopGo FLuc	2A Renilla
Cc1nn(-c2ccccc2)c(NC(=O)c2ccco2)c(-c2ccccc2)c1=O is listed as -5%	-20%
CCn1cc(C(=O)N2CCC(CNC(C)=O)CC2)c2ccccc21 is listed as 0%	4%
Cc1cccc(N(CC(=O)NCc2ccccc2)S(C)(=O)=O)c1C is listed as -8%	6%
O=C(Nc1ccc2c(c1)nc1n2CCOC1)C1CCCCC1 is listed as 16%	19%
COCCOc1ccc(C(=O)/C=C/c2cccc(O)c2)cc1OC is listed as 99%[activator]	27%

Further structures follow.
nr	SMILES	StopGo FLuc	2A Renilla
21	O=C(CSc1ccc(Br)cc1)NCc1ccc(CN2CCCC2)cc1	-6%	-15%
22	O=C(NCc1ccc(F)cc1)C1CCN(c2nc3ccccc3o2)CC1	18%	-4%
23	CC(=O)Nc1ccc(Nc2cc(C)nc3c(-c4ccc(C)cc4)cnn23)cc1	7%	u
24	O=C(CN1C(=O)c2ccccc2Sc2ncccc21)Nc1cccc(C(F)(F)F)c1	7%	13%
25	CCCN1CCn2c(nc3cc(NC(=O)c4ccc(OC)c(OC)c4)ccc32)C1	114%[activator]	12%
26	CN(C)c1ccc(NC(=O)CCC(=O)c2cccs2)cc1	67%[activator]	14%
27	COc1ccc(-c2cc(C(C)=O)c(C)n2CCC(=O)Nc2ccc(C)cc2Cl)cc1	-7%	-13%
28	Cc1ccc(CNC(=O)c2ccc(CS(=O)(=O)Cc3ccc(C)cc3)o2)cc1	-20%	-12%
29	O=C(O)C1CC(=O)N(C2CC2)C1c1ccccc1 (stereo not given)	-27%	3%
30	Cc1ccc(-c2cc(-c3ccccc3)c(C#N)c(SCCS(=O)Cc3ccccc3)n2)cc1 (stereo not given)	-13%	-15%
31	CCc1ccc(-c2cn3c(n2)sc2cc(C(=O)NC4CCCCCC4)ccc23)cc1	2%	-11%
32	CCCCOC(=O)COc1cc(O)c2c(=O)cc(-c3ccccc3)oc2c1	0%	16%
33	N#Cc1ccccc1Cn1c(=O)n(CCC(=O)NCc2ccccc2Cl)c(=O)c2sccc21	-8%	6%
34	O=C(NCC(=O)N(c1ccccc1)C1(C(=O)NC2CCCC2)CCCCC1)c1ccccc1	-7%	13%
35	Cc1cccc(C)c1NC(=S)NCCc1ccc(C(F)(F)F)cc1	-9%	43%[activator]
36	S=C(NN=C1CCC(c2ccccc2)CC1)NC1CCCCC1 (stereo not given)	42%[activator]	0%
37	CCC(Sc1nc2cc3c(cc2c(=O)n1CCCCCC(=O)NCc1ccc2c(c1)OCO2)OCO3)C(=O)NCCCOC (stereo not given)	-5%	0%
38	O=c1[nH]c(=O)n([C@H]2C[C@H](O)[C@@H](CO)O2)cc1C(F)(F)F	0%[11.5 µM]	23%
39	N#Cc1nc(-c2ccco2)oc1N1CCN(CC(=O)Nc2ccccc2Br)CC1	-7%	-1%
40	N#CCCN(C(=O)CSc1nc(CN2CCOCC2)nc2ccccc12)c1ccccc1F	-4%	-9%
41	Cc1ccccc1CCNC(=O)c1cc2ccccn2n1	182%[activator]	7%
42	COc1cc2oc(=O)c(CC(=O)NCc3ccc4c(c3)OCO4)c(C)c2cc1Cl	8%	0%
43	O=C(CC(c1ccc(Cl)cc1)C1CCCC1=O)c1ccccc1 (stereo not given)	-17%	24%
44	COc1ccc(-c2onc(C)c2C)cc1S(=O)(=O)N(C)Cc1ccccc1	u	-5%
45	O=S(=O)(Nc1ccccc1C(F)(F)F)c1ccc(N2CCCCS2(=O)=O)cc1	1%	0%
46	O=C(c1ccc(Cl)s1)N1CCN(c2cccc(C(F)(F)F)c2)CC1	22%	24%
47	Cc1ccc(-n2nc3c(N4CCC(C(=O)NCCc5ccccc5C)CC4)nnc(C)c3c2C)cc1	-12%	-6%
48	COc1ccc(-c2c(C)oc3cc(OCC(=O)N4CCN(CCO)CC4)ccc3c2=O)cc1	35%[activator]	-12%
49	CCOc1ccc(CCNC(=O)c2c3c(nc4ccccc24)C(=O)N(C2CCCCC2)C3)cc1	-27%	22%
50	N#Cc1nc(-c2ccccc2)oc1NCCCN1CCOCC1	54%[activator]	1%
51	CN1CCN(C(c2ccccc2)c2sc3nc(-c4ccco4)nn3c2O)CC1 (stereo not given)	-9%	8%
52	Cc1ccc(CCNC(=O)c2ccc(CS(=O)(=O)Cc3cccc(C)c3)o2)cc1	-21%	-11%
53	COc1ccc(NC(=O)c2cc(S(=O)(=O)N3CCOCC3)ccc2OC)cc1	-16%	-1%
54	COc1cccc(Cn2c(NCC(C)O)nc3c2c(=O)n(C)c(=O)n3C)c1 (stereo not given)	u	u
55	COCCN1C(=O)C(=O)/C(=C(/O)c2ccc(OC)c(C)c2)C1c1ccc(OC)c(OC)c1 (stereo not given)	12%	5%
56	Cc1ccc(-c2ccc(C(=O)O)s2)cc1	u	0%
57	Cc1c(Cl)cccc1NC(=O)C(C)n1c(=O)cc(-c2ccccc2)c2c(C)nn(C)c21 (stereo not given)	-20%	-16%
58	COc1ccc(C)cc1NC(=O)CNC(=O)NOCc1ccccc1	2%	-2%
59	CSc1cc(C(=O)O)ccn1	-7%	6%
60	Cc1ccccc1-n1c(/C=C/c2c(C)[nH]c3ccccc23)nc2ccccc2c1=O	u	-1%
61	CCC1(C)CC(=O)c2c(ccc3oc(C(=O)NCc4ccccc4)c(C)c23)O1 (stereo not given)	157%[activator]	73%[activator]
62	CCC12CN3CC(CC)(CN(C1)C3c1ccc(OCc3ccccc3)cc1)C2=O (stereo not given)	-3%	3%
63	CCOC(=O)c1cnc2ccc(OCC)cc2c1Nc1ccc(OCc2ccccc2Cl)cc1	1%	-11%
64	Cc1cc2oc(C(=O)N(Cc3ccccc3)c3ccccn3)cc(=O)c2cc1Cl	4%	-8%
65	CCN(C(=O)c1occc1C)C1CC1	-5%	-7%
66	CS(=O)(=O)Oc1ccc2c(c1)O/C(=C\c1ccc(Cl)cc1)C2=O	-3%	-1%
67	CCN(CC)CC1CCN(CC(=O)OC)CC1	11%	6%
68	Cc1nn(-c2ccccc2)c(OC(=O)c2cccc(Br)c2)c1S(=O)(=O)c1ccccc1	-9%	12%
69	Cc1c(CCC(=O)NCCc2ccc(Cl)cc2)c(=O)oc2c(C)c(O)ccc12	-5%	3%
70	CC12NC(Cl)=C(C#N)C(C#N)(C(=N)O1)C2(C)C (stereo not given)	3%	7%
71	CCN1CCN(C(c2ccccc2Cl)c2c(O)cc(C)n(Cc3ccco3)c2=O)CC1 (stereo not given)	-17%	74%[activator]
72	COc1ccc(CCN2C(=O)CN(C3CCCCCC3)C(=O)C2c2ccc(Cl)cc2)cc1OC (stereo not given)	-20%	10%
73	CCN(CC)c1ccc(CNCCCSc2nnnn2C)cc1	-15%	-14%
74	CSc1ccc(CCNC(=O)CCc2c(C)nc3c4cccnc4nn3c2C)cc1	-18%	0%
75	O=C(Nc1ccc2oc(-c3ccccc3F)nc2c1)c1ccccc1	143%[activator]	8%
76	Cc1cccc(Cn2c(SCc3ccc(C(=O)NCc4ccccc4F)cc3)nc3ccncc32)c1	-11%	1%
77	COc1ccc(-c2cc(C(=O)NCc3ccc(F)cc3)no2)cc1	30%[activator]	16%
78	CC1=C(C(=O)OCC2CCCCC2)C(c2ccc(F)cc2F)CC(=O)N1 (stereo not given)	-19%	-5%
79	COc1cc2c(cc1OC)n(Cc1ccc([N+](=O)[O-])cc1)c(=O)n1nc(-c3ccccc3)nc21	0%	0%
80	Cc1cc(OI)c(C(C)C)cc1-c1cc(C(C)C)c(OI)cc1C	0%[11.5 µM]	-9%

Next structures
nr	SMILES	StopGo FLuc	2A Renilla
81	Cc1[nH]nc2c1C(c1ccc(Cl)c(Cl)c1)C1=C(COC1=O)N2 (stereo not given)	10%	15%
82	O=C(NCc1ccccc1Cl)c1cnc2sc(N3CCCCC3)nn2c1=O	-1%	-4%
83	Cc1cc(C(C)(C)C)cc(C)c1CS(=O)(=O)CCCO	0%	4%
84	CCCCN(C)CCCNC(=O)c1cc(-c2cccnc2)nc2ccccc12	-22%	-20%
85	COc1ccc(CNC(=O)Cn2c(=O)oc3cc(S(=O)(=O)N4CCC(C)CC4)ccc32)cc1	u	u
86	Cc1ccccc1C(=O)N1CCC(C(=O)Nc2ccc(F)cc2F)CC1	-14%	3%
87	COc1cc(C(=O)NCCc2sc(-c3cccc(F)c3)nc2C)cc(OC)c1OC	-10%	12%
88	CC(=O)c1ccc(NC(=O)COC(=O)COc2ccc(C3SCCCS3)cc2)cc1	17%	-4%
89	Cc1cc(C(=O)CSc2nnnn2C2CCCC2)c(C)n1Cc1ccco1	43%[activator]	81%[activator]
90	Cc1cccc(C)c1NC(=O)c1sc(N)nc1-c1ccccc1	40%[activator]	30%
91	CSc1ccc(/C=C/C(=O)c2ccc3c(c2)OCCO3)cc1	0%	22%
92	COc1ccc(C(=O)Oc2cc(C)cc(OC(=O)c3ccc(OC)cc3)c2)cc1	0%	3%
93	CSCCC(NC(=O)c1ccccc1Br)C(=O)Nc1cc(Cl)cc(Cl)c1 (stereo not given)	5%	-1%
94	COc1cc(C(=O)NCC(c2cccs2)S(=O)(=O)c2cccs2)cc(OC)c1OC (stereo not given)	31%[activator]	69%[activator]
95	CCCCN(CC)CCCNC(=O)Nc1sc2nc3n(c(=O)c2c1C)CCC(C)CC3 (stereo not given)	-17%	-5%
96	Cc1c(NC(=O)c2cccc([N+](=O)[O-])c2C)cccc1-c1nc2ccccc2o1	-1%	-2%
97	Cc1c(Cl)cccc1S(=O)(=O)N(Cc1cccnc1)C1CC1	u	-20%
98	COCCn1c(SC(C)C(=O)Nc2ccc(Cl)cn2)nc2ccccc21 (stereo not given)	-14%	-11%
99	COc1cccc(CNCc2ccco2)c1	16%	-1%
100	Cc1c2oc3c(C)ccc(C(=O)N[C@@H]4C(=O)N[C@H](C(C)C)C(=O)N5CCC[C@H]5C(=O)N(C)CC(=O)N(C)[C@@H](C(C)C)C(=O)O[C@@H]4C)c3nc-2c(C(=O)N[C@@H]2C(=O)N[C@H](C(C)C)C(=O)N3CCC[C@H]3C(=O)N(C)CC(=O)N(C)[C@@H](C(C)C)C(=O)O[C@@H]2C)c(N)c1=O	-63%	-76%
101	COc1ccc(C(=O)N(C)CCCNC(=O)c2nc3ccccc3c(=O)[nH]2)cc1OC	85%[activator]	0%
102	COC(=O)c1ccc(NC(=O)CC2C(=O)N(c3ccccc3)C(=O)N2Cc2ccc(F)cc2)cc1 (stereo not given)	-18%	17%
103	COc1cc(C2CC(=O)c3c([nH]c(C(=O)OCC4CCCCC4)c3C)C2)cc(OC)c1OC (stereo not given)	u	u
104	CN(Cc1ccco1)C(=O)CCNS(=O)(=O)c1ccc2c(c1)CCN2C(=O)C1CC1	13%	0%
105	O=C(CCNS(=O)(=O)c1ccc2c(c1)CCN2C(=O)C1CC1)N1CCN(c2cccc(C(F)(F)F)c2)CC1	u	u

Compound activity as filed in PubChem.

An excerpt; rates above refer to the full screens.
